eIF4H inh – inhibitors of RNA binding by human eIF4H; Q15056; eIF4H fluorescence polarization binding assay; inhibition, % at 35 µM; 290,000 compounds, 0.94% hits; AID 2012;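 active means 50% or more with normal probe brightness, or confirmed in later tests; inconclusive means above 50% with abnormal brightness, or retests that disagree; inactive means below 50% or failed in later tests; about a fifth of its hits are not listed in these tables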;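 further: calls also rest on retests at 20 µM and on dose response follow-up; 0% = protein and probe with vehicle and 100% = probe without protein; strong numbers were not always called active; many hits fall short of the cut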
CSC inhib – cancer stem cell inhibition; AID 2717; 300,000 compounds, 1.1% hits; cancer stem cell-like cells viability, luminescence; inhibition, % at 7.5 µM;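 active means mean at 75% or more and at least half the replicates too; inconclusive means mean and replicates disagree; tested in HMLE shEcad cells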;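 further: 0% = median of negative and 100% = median of positive control wells; the first replicate is given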
MT1-MMP act inh – blocks activation of human MT1-MMP | HT1080 RFP-PRO-GFP cells, GFP/RFP ratio fluorescence, overnight; percent of plate control window, DMSO zero | P50281 | 360,000 compounds, 0.061% hits | GFP/RFP ratio change, % at 20 µM;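 active means GFP/RFP ratio change of at least 30% with cell ATP level not reduced by more than half and red fluorescence within 50% of control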; further: strong numbers were not always called active
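Assay system: HT1080 cells carrying an RFP-PRO-GFP reporter | Dosing: Single dose of 20 µM compound, 1% DMSO final | Incubation: Cells overnight before dosing, compound overnight, 37 °C, 5% CO2 | Evaluation: GFP/RFP fluorescence ratio | Control set: DMSO and RFP-L50D-GFP cell wells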
Env fusion inh – HIV envelope-mediated fusion inhibition; 360,000 compounds, 1.1% hits; HeLa-JRFL Env/CEM21 cell fusion, luciferase; inhibition, % at 12.3 µM; AID 651610;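 active means mean replicate inhibition score of at least 50 and every replicate individually at or above 50; inconclusive means only one of the two criteria met; inactive means mean below 50 and not all replicates reaching 50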;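 further: 0% = plate neutral controls and 100% = maraviroc near 300 nM; one replicate is shown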
UUG fidelity – modulators of start codon recognition fidelity in yeast | 350,000 compounds, 0.13% hits | S. cerevisiae UUG-firefly luciferase reporter, luminescence/redox ratio | activity score, % at 18.7 µM;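 active means replicate mean at a twofold rise or more, about +100% in these data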;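 further: firefly luciferase made from a UUG start codon reports start codon fidelity; reporter light over untreated wells divided by growth signal over untreated wells; some hits fall short of that in this replicate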
Rce1 inh – inhibitors of yeast Ras-converting enzyme; Q03530; yeast membranes, quenched prenylated peptide cleavage fluorescence; calls only; 290,000 compounds, 0.27% hits; AID 2563;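 active means fall in fluorescence gain of 50% or more versus controls, with final raw signal at or below 3038400; inconclusive means same 50% fall but final raw signal above 3038400; inactive means fall in fluorescence gain under 50%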;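 further: plate controls were neutral control wells for no effect and wells lacking membranes for full effect; tested at 10 µM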
Target sequence (Q03530 whole entry, looked up): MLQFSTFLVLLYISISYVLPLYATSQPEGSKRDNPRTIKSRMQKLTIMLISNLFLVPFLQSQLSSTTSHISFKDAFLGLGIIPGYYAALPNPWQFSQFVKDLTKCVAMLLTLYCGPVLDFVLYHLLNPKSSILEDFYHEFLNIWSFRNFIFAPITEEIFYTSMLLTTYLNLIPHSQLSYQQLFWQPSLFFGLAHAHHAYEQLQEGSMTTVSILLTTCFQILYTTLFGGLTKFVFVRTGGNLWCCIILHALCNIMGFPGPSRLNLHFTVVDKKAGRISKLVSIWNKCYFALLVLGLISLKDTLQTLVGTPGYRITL
PABP polyA inh – PABP-poly(A) binding inhibition | PABP-poly(A) RNA binding, fluorescence polarization | P11940 | 290,000 compounds, 1% hits | inhibition, % at 35 µM | AID 2014;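 active means 50% or more with normal probe brightness, or confirmed in later tests; inconclusive means above 50% with abnormal brightness, or retests that disagree; inactive means below 50% or failed in later tests; about a fifth of its hits are not listed in these tables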;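 further: calls also rest on retests at 20 µM and on dose response follow-up; controls were probe without protein and protein plus probe with vehicle; some compounds called inactive have numbers as strong as hits; many hits fall short of the cut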
Target sequence (P11940 whole entry, looked up): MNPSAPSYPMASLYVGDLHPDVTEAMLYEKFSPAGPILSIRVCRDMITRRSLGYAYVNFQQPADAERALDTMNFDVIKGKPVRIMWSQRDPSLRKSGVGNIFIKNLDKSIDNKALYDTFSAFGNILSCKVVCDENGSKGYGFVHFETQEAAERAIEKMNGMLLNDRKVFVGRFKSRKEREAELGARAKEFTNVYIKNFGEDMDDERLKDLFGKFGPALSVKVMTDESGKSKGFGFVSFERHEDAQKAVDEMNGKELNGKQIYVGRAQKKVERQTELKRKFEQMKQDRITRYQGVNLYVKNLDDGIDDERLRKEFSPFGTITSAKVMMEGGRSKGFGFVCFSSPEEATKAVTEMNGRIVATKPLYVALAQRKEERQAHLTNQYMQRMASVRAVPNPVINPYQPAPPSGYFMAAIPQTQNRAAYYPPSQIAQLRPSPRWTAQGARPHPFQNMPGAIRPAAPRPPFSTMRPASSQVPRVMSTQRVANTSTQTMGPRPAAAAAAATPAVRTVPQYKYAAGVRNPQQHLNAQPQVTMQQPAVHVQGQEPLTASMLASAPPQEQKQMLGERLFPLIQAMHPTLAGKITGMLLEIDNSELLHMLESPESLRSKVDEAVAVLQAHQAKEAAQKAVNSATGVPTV
MT1-MMP act inh RFP – further read-out of MT1-MMP act inh, marked with its call; RFP signal change, %; measured here: RFP expression control read;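 0 = vehicle wells; hits needed this value within 50% of zero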
An asterisk follows results filed as active; i = inactive; ? = inconclusive; . = not tested or not shown; + = active, no number. These rows are one share of the data; rates above refer to the full screens.

SMILES	eIF4H inh	CSC inhib	MT1-MMP act inh	MT1-MMP act inh RFP	Env fusion inh	UUG fidelity	Rce1 inh	PABP polyA inh
CCCc1cc(=O)oc2c(C)c(OCC(=O)N3C[C@H]4C[C@@H](C3)c3cccc(=O)n3C4)ccc12	3	-16	-1	-2	.	-11	i	6
CCC(NC(=O)Nc1nnc(C(F)(F)F)s1)(C(F)(F)F)C(F)(F)F	5	-17	-19	-35	.	.	i	2
O=C1CC(C(=O)Nc2ccc(F)cc2)S/C(=N\N=C\c2ccco2)N1 (stereo not drawn)	-5	-17	9	5	-19	.	i	4
NC(Cc1ccc(Cl)cc1)c1csc(NC(=O)Nc2ccccc2-c2ccccc2)n1 (stereo not drawn)	.	.	-8	-6	20	-22	.	.
Cc1ccccc1NC(=O)/C=C/c1ccc([N+](=O)[O-])s1	1	98*	-162	-10	.	.	i	2
O=C(COc1cccnc1[N+](=O)[O-])N1CCN(C(=O)c2ccco2)CC1	?	0	0	5	-8	.	i	?
Cc1cc(C)nc(SCc2ccc(C(=O)NN=C3C4CC5CC(C4)CC3C5)cc2)n1	-3	-5	2	5	-20	.	i	-6
O=C(CCNS(=O)(=O)c1cccc2nsnc12)NCc1cccs1	-2	-11	1	7	-32	-7	i	2
C=C(C)COc1ccc(-c2n[nH]c(C)c2-c2ccc(OC)cc2)c(O)c1	-8	+	.	.	.	1	i	-6
CCNC(=O)COC(=O)/C=C/c1cccc([N+](=O)[O-])c1	-5	-5	-10	-9	15	.	i	1
CC(=O)Oc1ccc(C)cc1N1C(=O)c2ccc(C(=O)O)cc2C1=O	-4	-4	1	4	.	-16	i	0
CCOC(=O)C1(Cc2ccccc2)CCCN(Cc2ccncc2)C1 (stereo not drawn)	9	.	-5	0	7	.	i	14
Cn1c(/N=C/c2cc(Cl)ccc2O)nc2ccccc21	0	7	.	.	.	.	i	-1
CCOc1cc(-c2noc(N)c2C(=O)OC)cc(OCC)c1OCC	-14	-11	6	0	24	2	i	-2
Cc1ccc(NC(=O)c2ncn(CC(=O)NCc3ccc4[nH]ccc4c3)n2)cc1C	.	.	-2	-4	-9	-16	.	.
CCOC(=O)c1[nH]cnc1C(=O)NCc1ccccc1	-7	1	1	5	11	-18	i	5
COC(=O)CC1(C(=O)OC)Oc2ccc(Br)cc2C(=O)N1c1ccc(Br)cc1Cl (stereo not drawn)	-2	57	-6	-19	10	.	.	-1
CCOC(=O)CN1CC23C=CC(O2)C(C(=O)NC2CCCC2)C3C1=O (stereo not drawn)	-2	.	-1	4	-11	15	i	10
O=C(N/N=C/c1c(O)ccc2ccccc12)c1ccc(Br)o1	-17	156*	-81	-4	30	-17	i	-17
O=C(CSc1nccn1-c1cccc(Cl)c1)NO	-4	.	1	2	0	.	i	2
NC(=O)c1c[nH]c2ccccc12	11	5	1	1	.	-17	i	13
O=C(O)COc1ccccc1/C=N/NC(=O)CSc1nnc(SCc2ccccc2)s1	-4	1	6	5	-1	-23	i	-8
C/C=C/C(=O)OCC(=O)Nc1ccc(OC)c(Cl)c1	2	-4	-4	3	-13	-9	i	-5
CCCc1nc2cc(Cl)c([N+](=O)[O-])cc2o1	1	7	0	5	-5	.	i	-4
CCN1CCN(C(=O)C2CCN(C(=O)Nc3ccccc3)CC2)CC1	.	-12	2	0	.	-16	.	.
CC(C)(C)CC(=O)N1CCN(c2ccc(S(=O)(=O)N3CCOCC3)cc2[N+](=O)[O-])CC1	.	-14	3	-9	.	1	.	.
Cc1cnc(C(=O)OCC(=O)c2ccc(F)cc2)cn1	-8	0	-1	3	6	1	i	-5
Cc1cc(C)n2nc(SCC(=O)c3c(N)n(CC(C)C)c(=O)n(C)c3=O)nc2n1	-7	-3	2	-7	5	.	i	-9
O=C(Nc1cccc(C(=O)NC2CCCC2)c1)c1ccccc1	7	5	-1	1	2	5	i	0
CC(NC(=O)COC(=O)c1ccc2c(c1)OCO2)c1ccccc1 (stereo not drawn)	4	-12	5	3	-14	.	i	7
CCC/C(=N\NC(=O)c1csc(C)c1C)c1cccs1	-2	9	-2	-7	.	-12	i	6
Cc1nn(C(=O)c2cccc([N+](=O)[O-])c2)c(C)c1Sc1ccccc1	-7	-3	-6	1	.	-19	i	-1
CCSc1nnc(CNc2ccc(C)cc2)n1C	0	-3	1	2	-5	-17	i	4
Cn1c(=O)c2cc(NC(=O)NCCc3ccccc3)ccc2n1Cc1ccccc1	.	.	3	-4	3	-3	.	.
COC(=O)c1ccc(CNC(=O)c2ccc3c(c2)S(=O)(=O)N=C2CCCCCN23)cc1	.	-5	1	0	.	-10	.	.
COc1ccccc1CNC(=O)C1CCN(Cc2nc(-c3cccc(Cl)c3)oc2C)CC1	-6	-14	2	-9	17	0	i	-7
O=C1c2ccccc2C(=O)N1c1cccnc1	-2	-15	4	6	-21	-14	i	2
CN(C(=O)COC(=O)CNC(=O)c1ccc2ccccc2c1)c1c(N)n(Cc2ccccc2)c(=O)[nH]c1=O	2	-1	-2	4	.	0	i	-8
CC(=O)c1cccc(-c2cnc3c(NC=O)cc(-c4ccc(N5CCN(C)CC5)cc4)cn23)c1	.	.	-10	-1	19	-24	.	.
Cc1cc(C)cc(OCC(=O)NNC(=O)CC(C)c2ccccc2)c1 (stereo not drawn)	.	.	-1	4	-15	2	.	.
COC(=O)c1cc(S(=O)(=O)NCC2CCN(Cc3cccc(F)c3)CC2)c[nH]1	-6	20	-2	0	-3	-21	i	3
Cc1cc(C=O)c(C)n1-c1ccc(N2CCOCC2)cc1	6	-7	2	-2	.	3	i	-11
COc1cccc(C(=O)N2CCN(C(=O)c3cccs3)CC2)c1OC	9	0	6	4	-1	-24	i	17
Cc1nc2ccc(NC(=O)N3CCOCC3)cc2nc1C	8	20	-7	-1	-7	-6	i	-5
CCN(CC)C(=O)CSc1nc2ccc(NC(=O)CSc3nnc(COc4ccccc4C)n3C)cc2s1	7	-2	-5	-15	.	.	i	2
N#CC1=C(N)Oc2cc(N)ccc2C1c1cc(Br)cs1 (stereo not drawn)	1	60	-86	-8	-10	12	i	-3
CCN(CC)S(=O)(=O)c1ccc(Cl)c(C(=O)N2CCc3ccccc32)c1	-9	27	-2	-21	.	.	.	5
CN(C)C(CNC(=O)CCCN1C(=O)c2cccc3cccc(c23)C1=O)c1ccccc1 (stereo not drawn)	46	-6	-3	-6	10	2	i	-3
Cn1c(SCC(=O)Nc2ccc3[nH]c(=O)[nH]c3c2)nnc1-c1ccccc1	8	-8	-2	0	.	-3	i	6
CCOc1ccccc1NC(=O)CCS(=O)(=O)c1ccc(OC)cc1	8	-10	0	7	-6	.	i	?
CCOC(=O)c1sc(NC(=O)Nc2ccc(Cl)cc2)nc1C	8	36	-3	-6	-46	-13	i	5
CCc1nc(N2CCN(Cc3ccc4c(c3)OCO4)CC2)c2oc3ccccc3c2n1	-4	81*	-9	-16	-129	-12	i	-7
COC(=O)c1ccc(NS(=O)(=O)c2ccc(Cl)cc2)o1	6	-10	3	4	4	-13	i	-12
COCCCNC(=O)c1ccc(Cn2c(=O)c3ccccc3n(CC(=O)NCc3ccco3)c2=O)cc1	-8	-15	0	1	1	11	i	2
COc1cc(C(=O)N2CCN(C3CCC(C)CC3)CC2)cc(OC)c1OC (stereo not drawn)	2	-10	-1	8	-29	1	i	8
CCN1CCCC1CNc1ncnc2c1[nH]c1ccc(Cl)cc12 (stereo not drawn)	-5	1	-1	-3	.	-14	i	1
CC1(C)OC(=O)N(Cc2ccco2)C1(C)O (stereo not drawn)	?	-5	-2	4	.	8	i	66*
COc1ccc(CC(=O)NCC(=O)NC(Cc2ccccc2)C(=O)O)cc1 (stereo not drawn)	-10	.	0	4	-3	-4	i	-1
CC(=O)NC(NC(C)=O)c1cccc(OCc2ccccc2)c1	8	-2	0	3	15	.	i	24
Cc1cccn2cc(-c3cccc(S(=O)(=O)N4CCOCC4)c3)nc12	11	-9	5	-2	12	-12	i	1

Following part:
SMILES	eIF4H inh	CSC inhib	MT1-MMP act inh	MT1-MMP act inh RFP	Env fusion inh	UUG fidelity	Rce1 inh	PABP polyA inh
O=C(COc1ccccc1)N(Cc1cc2ccccc2[nH]c1=O)CC1CCCO1 (stereo not drawn)	-3	-2	-2	2	-38	.	i	-7
O=C(OCC#CCSc1nc2ccccc2o1)c1cc2ccccc2o1	5	-10	1	6	.	-25	i	-3
NC(=O)c1nc(C(=O)N2CCN(c3ccccc3)CC2)c2ccccc2n1	.	7	-2	3	-14	-13	.	.
CC(C)CNC(=O)C1Nc2ccccc2C2C=CCC12 (stereo not drawn)	.	-6	5	6	-57	-25	i	.
O=C(COC(=O)Cc1ccc(Br)cc1)NC1CCCCC1	2	2	-5	3	0	.	i	-12
Oc1ccc(Cl)cc1Nc1nc(NCC2CCCO2)c2ccccc2n1 (stereo not drawn)	.	1	7	-18	-8	-11	i	.
O=C(O)c1ccc(COCC(F)(F)F)cc1	-5	-19	-2	3	-21	-8	i	38
O=C(CCNC(=O)Cn1cnc2ccccc2c1=O)NCCC1=CCCCC1	-7	16	7	6	.	-11	i	-8
COc1ccccc1C(CNc1nc(C(F)(F)F)nc2ccccc12)N(C)C (stereo not drawn)	-3	-1	-1	-2	-18	2	i	-10
CN(Cc1ccccc1NC(=O)c1ccc(S(=O)(=O)N(C)C)cc1)C1CCCCC1	-5	34	.	.	.	.	i	-2
Cc1cccc(NS(=O)(=O)c2ccc(C(C)(C)C)cc2)n1	1	-7	5	2	-20	-17	i	10
CN(C)S(=O)(=O)c1cccc(NC(=S)N2CCc3ccccc32)c1	1	-11	-1	-4	8	.	i	16
CC(CCCCCCCCC(=O)O)N(CCO)C(=O)OC(C)(C)C (stereo not drawn)	.	14	6	4	5	10	.	.
COc1ccc(N2CCN(c3nc(C)c(C)c(=O)[nH]3)CC2)cc1	1	-14	4	1	-4	4	i	-3
CC(C)(C)OC(=O)C[C@H]1C/C=C\C[C@@H](CC(=O)N[C@@H](CO)Cc2ccccc2)C(=O)NC[C@H](c2ccccc2)OC1=O	.	.	2	-2	-10	-1	.	.
